From PubChem BioAssay
MARV entry inh: inhibitors of Marburg virus binding or cell entry. Marburg virus pseudotyped entry inhibition, cell reporter; control for the full effect not named in the record; about a third of the inactives were read at about 46 µM. Potency, µM (top dose mostly 37.8 µM), without a hit: top-dose activity change, negative = inhibition, hits mostly inhibitors. 300,000 compounds, 1.8% hits. AID 540276; active = well fitted inhibition curve with a large enough effect; inconclusive = small, poorly fitted or top-dose-only effect, or effect the other way; inactive = flat fitted curve, though single readings scatter; tested in HEK293 cells; about a fifth of its hits are not listed in these tables; also: % is scaled to controls: 0 for no effect and ±100 for the full control effect; luciferase read-out
Cruzain Triton: blocks cruzain activity in presence of Triton detergent. Potency, µM, for inactives: max response, negative = inhibition, actives largely listed as inhibitors. P25779. 200,000 compounds, 0.43% hits. purified cruzain, Z-FR-AMC fluorescence, 0.01% Triton; active = well fitted curve in the direction sought with a large enough effect; inconclusive = small, poorly fitted or top-dose-only effect, or another doubt; inactive = no such curve, though single readings can be large; an effect the other way counts as inactive or inconclusive;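 also: plate controls were neutral wells for no effect and buffer without enzyme for full effect; nearly all actives have a fitted effect of over 40% in size; top concentration of the series not given in the record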
Target sequence (P25779 123-467 limits assumed): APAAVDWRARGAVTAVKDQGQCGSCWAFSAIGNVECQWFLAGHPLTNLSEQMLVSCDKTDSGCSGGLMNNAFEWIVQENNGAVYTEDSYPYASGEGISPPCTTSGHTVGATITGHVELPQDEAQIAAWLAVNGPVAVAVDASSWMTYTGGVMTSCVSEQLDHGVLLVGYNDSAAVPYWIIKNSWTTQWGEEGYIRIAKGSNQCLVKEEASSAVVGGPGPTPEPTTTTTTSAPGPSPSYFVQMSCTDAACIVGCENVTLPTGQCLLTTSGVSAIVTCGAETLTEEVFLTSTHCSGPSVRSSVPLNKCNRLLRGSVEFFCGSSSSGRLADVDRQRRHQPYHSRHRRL
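Detergent-containing run (0.01% Triton X-100) in acetate buffer pH 5.5 with 5 mM DTT: enzyme at 1.5 nM final, 15 min compound preincubation at room temperature, then 2 uM Z-FR-AMC substrate. Activity taken as 60 s fluorescence increase at 360/450 nm.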
LASV entry inh: blocks Lassa virus binding to or entry into cells | Lassa virus pseudotype entry inhibition, cell reporter; control for the full effect not named in the record | Potency, µM (titrated, usually from 37.9 µM), for the others: top-dose activity change, negative = inhibition, hits mostly inhibitors | 300,000 compounds, 1.2% hits; active means well fitted inhibition curve with a large enough effect; inconclusive means small, poorly fitted or top-dose-only effect, or effect the other way; inactive means flat fitted curve, though single readings scatter; tested in HEK293 cells; also: % is scaled to controls: 0 for no effect and ±100 for the full control effect; nearly all actives have a fitted effect of over 50% in size; luciferase read-out
RE007 growth inh: less growth of the S. pombe RE007 Vpr strain. S. pombe RE007 Vpr strain, BacTiter-Glo ATP luminescence, 24 h; control for the full effect not named in the record. Potency, µM (top dose mostly 92.2 µM), for inactives: at the highest dose activity change, negative = less growth. 360,000 compounds, 0.21% hits. AID 651644; active = well fitted falling curve with a large enough effect; inconclusive = small, poorly fitted or top-dose-only effect; inactive = no such curve, though single readings can be large or run the other way;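 also: % is scaled to controls: 0 for no effect and ±100 for the full control effect; nearly all actives have a fitted effect of over 50% in size; the assay follows cell death caused by Vpr and the record does not say whether a fall means rescue or toxicity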
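Fission yeast RE007 carrying one integrated HIV-1 vpr copy, seeded at OD 0.01 in PMG+AL medium with 23 nL pinned compound. Grown 24 h at 30 degrees; viability read by BacTiter-Glo luminescence after 5 min.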
SARS PLP yeast: SARS-CoV PLP inhibition in yeast; S. cerevisiae expressing SARS-CoV PLpro, growth rescue; control for the full effect not named in the record; Potency, µM (titrated, usually from 32.9 µM), for the others: at the top dose activity, positive = growth rescue; 330,000 compounds, 0.19% hits; also: 0% is about no effect; nearly all actives have a fitted effect of over 55% in size; growth read by luminescence after 48 h
StopGo reporter: lowers the luciferase signal of an FMDV 2A StopGo reporter; human cells with a luciferase reporter of 2A StopGo recoding; control for the full effect not named in the record; 410,000 compounds, 1.2% hits; AID 1159524; Potency, µM (titrated, usually from 57.9 µM), for inactives: at the top dose signal change, negative = less light; active = well fitted falling curve with a large enough effect; inconclusive = small, poorly fitted or top-dose-only effect; inactive = no such curve, though single readings can be large or run the other way; tested in HEK293T cells; also: % is scaled to controls: 0 for no effect and ±100 for the full control effect; nearly all actives have a fitted effect of over 45% in size; luciferase light after 4 h
NS1 function inh: blocks influenza NS1 protein function; Potency, µM (highest dose often 46.1 µM), for inactives: top-dose activity, positive = more growth; AID 2326; 270,000 compounds, 0.4% hits; S. cerevisiae slowed by influenza A NS1, growth recovery by OD600; also: actives are rising curves; nearly all actives have a fitted effect of over 50% in size
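Read-out: OD600 growth recovery of NS1-expressing budding yeast. Cells grown overnight at 30C in -URA glucose medium, washed, resuspended and diluted 1:100 in 2% galactose assay medium, pH 6.0. Same strain lacking NS1 served as positive control.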
Cruzain noTriton: inhibitors of Trypanosoma cruzi cruzain without detergent; P25779; purified cruzain, Z-FR-AMC fluorescence, no detergent; Potency, µM, inactives show max response, negative = inhibition, hits mostly inhibitors; 200,000 compounds, 2.3% hits; active = well fitted curve in the direction sought with a large enough effect; inconclusive = small, poorly fitted or top-dose-only effect, or another doubt; inactive = no such curve, though single readings can be large; an effect the other way counts as inactive or inconclusive;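 also: plate controls were enzyme without inhibitor for no effect and buffer without enzyme for full effect; nearly all actives have a fitted effect of over 40% in size; top concentration of the series not given in the record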
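Purified cruzain at 1.5 nM, pre-incubated 15 min with compound at room temperature in 100 mM sodium acetate pH 5.5, 5 mM DTT, 0.00005% Triton X-100. Reaction started with 2 uM Z-FR-AMC; AMC fluorescence increase over 60 s gives rate.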
* = called active by the depositor; ? = inconclusive; . = no result given; & = joins results of further samples; [ ] = remark or other dose. Unless noted, calls follow the shape of the dose curve; as a rule, active means well fitted rising curve with a large enough effect; inconclusive means small, poorly fitted or top-dose-only effect; inactive means no such curve, though single readings can be large or run the other way. Potency is read from the fitted curve at half-maximal effect.

Structure	MARV entry inh	Cruzain Triton	LASV entry inh	RE007 growth inh	SARS PLP yeast	StopGo reporter	NS1 function inh	Cruzain noTriton
CC(=O)Nc1ccc(N2CCCC(C)C2)c([N+](=O)[O-])c1 (stereo not given)	5%	.	0%	-7%	-2%	-18%	-5%	.
O=C(CCS(=O)(=O)c1ccccc1)Nc1nncs1	-27%[46.1 µM]	.	-14%[46.1 µM]	-14%	0%	-1%	6%	.
O=S(=O)(c1ccc(-c2ccon2)s1)N1CCN(c2ccccn2)CC1	?	.	.	12%	0%	-19%	7%	.
Clc1cccc(N=C2NN=C(c3ccc4c(c3)OCCO4)CS2)c1	?	-1.7%	?	0%	3%	-25%	14%	10µM*
CC(C)C(OC(=O)CCCC(=O)Nc1nccs1)C(=O)NC1CCCCC1 (stereo not given)	.	.	.	-5%	0%	-7%	-2%	.
COc1cc(OC)cc(-c2nc3nc(C)c(CCC(=O)O)c(C)n3n2)c1	-5%[46.1 µM]	1.3%	?	5%	4%	-21%	-11%	?
O=C(Nc1ccsc1C(=O)N1CCCCCC1)c1ccccc1	-5%	5.4%	-3%	3%	-1%	26%	-9%	-9%
C/C(=N\NC(=O)c1nnn(-c2nonc2N)c1-c1cccs1)c1ccc(C)cc1	?	.	?	-1%	5%	-10%	-3%	.
N#Cc1ccccc1NC(=O)c1cc2c(=O)n3ccccc3nc2s1	?	-3.9%	3%[46.1 µM]	.	.	23%	.	4%
Cc1nnc(SCC(=O)NC2CC2)n1-c1ccccc1	.	.	.	5%	?	-15%	6%	.
CCOC(=O)c1c(-c2ccc(C)cc2)csc1/N=C(\C)C1=C(O)c2ccccc2C1=O	.	.	.	-4%	0%	?	-4%	.
COc1ccc(OCC(=O)NC2CC(=O)N(c3ccc4c(c3)OCCO4)C2)cc1 (stereo not given)	.	-1.6%	11%[46.1 µM]	.	.	0%	.	-10%
CCOC(=O)c1c(-c2cccs2)csc1NC(=O)CN1CC(C)OC(C)C1 (stereo not given)	11µM*	1.5%	?	-18%	-5%	?	-61%	?
CC(C)CNC(=O)NC(=O)COc1ccc(C=O)cc1	-29%[46.1 µM]	-0.1%	0%	-18%	.	16%	0%	4%
COc1ccc(N2CCN(C(=O)c3ccc(CS(=O)Cc4ccc(C)cc4)o3)CC2)cc1 (stereo not given)	-6%[46.1 µM]	.	-12%[46.1 µM]	-9%	-1%	-11%	5%	.
Nc1ncnc(NCc2ccccc2)c1[N+](=O)[O-]	-12%	-3.2%	5%	-1%	8%	9%	4%	-7%
COc1ccc(CNc2ccc(N3CCOCC3)cc2)cc1	.	.	.	5%	6%	9%	?	.
CC(NS(=O)(=O)c1ccc(Cl)c(Cl)c1)C(=O)OCC(=O)Nc1ccc2c(c1)OCO2 (stereo not given)	-35%	.	-24%	-16%	1%	-6%	-16%	.
C#CCCOC(=O)Nc1ccccc1	.	.	.	-9%	1%	21%	-1%	.
CCOc1cc(N2CCOCC2)c(OCC)cc1NC(=O)CSc1ncccc1C(=O)O	-7%[46.1 µM]	.	0%[46.1 µM]	-5%	2%	-12%	.	.
CC1CCN(S(=O)(=O)c2ccc3nc(-c4cccnc4)cc(C(=O)NCCCOC(C)C)c3c2)CC1	.	0.6%	30%[46.1 µM]	.	.	5%	.	-7%
COc1ccccc1C(=O)N1CCN(Cc2cccnc2)CC1	-3%[46.1 µM]	.	-1%[46.1 µM]	11%	0%	-3%	-4%	.
COc1ccc(CN2CCN(Cc3ccccc3F)CC2)c(OC)c1	?	.	0%	-6%	0%	-12%	1%	.
CCn1c(SCC(=O)N/N=C/C=C\c2ccccc2[N+](=O)[O-])nnc1-c1ccccc1	-6%	-7.3%	0%	11%	-3%	-20%	11%	?
Cc1cc(Br)ccc1OCCCCN1CCCCC1	?	.	-8%	-10%	1%	-16%	-3%	.
COc1ccc(CCNC(=O)CN2C(=O)COc3ccc(S(=O)(=O)N4CCOCC4)cc32)c(OC)c1	?	.	12%[46.1 µM]	13%	2%	20%	-17%	.
Cn1cccc1/C=C1\CC(C(C)(C)C)C/C(=C\c2cccn2C)C1=O (stereo not given)	?	-9.8%	-20%	-3%	5%	-20%	5%	?
COc1ccc(-c2nc(SCc3ccccc3)n(C(=O)c3ccco3)n2)cc1	20%	-2.0%	?	-5%	-2%	19%	-1%	?
COCc1ccc(CN2CCC(Oc3ccc(C(=O)NCc4ccccn4)cc3)CC2)o1	?	.	-2%	0%	-7%	-5%	-4%	.
Cc1csc(CN(C)C(=O)C2CCC(=O)N(Cc3ccc(Cl)cc3)C2)n1 (stereo not given)	-17%[46.1 µM]	.	-8%[46.1 µM]	4%	1%	20%	-1%	.
CC(C)CSc1n[nH]c(N)n1	4%[46.1 µM]	.	6%	5%	0%	11%	.	.
O=C(CCNS(=O)(=O)c1ccccc1F)N1CCN(S(=O)(=O)c2cccc(F)c2)CC1	9%	.	0%	8%	1%	-9%	.	.
COc1cc2oc(=O)c3c(c2cc1OCC(=O)c1c(C)n(C)c2ccccc12)CCCC3	17%	-2.7%	-9%	2%	-12%	-22%	1%	7%
CCOC(=O)Cc1csc(NC(=O)COc2ccc3c(c2)CCC3)n1	0%	.	?	-3%	28%	-20%	-26%	.
COc1ccc(NC2CCCN(C(=O)CCN3CCCC3=O)C2)cc1 (stereo not given)	?	.	2%	6%	-2%	-6%	7%	.
O=C(Nc1cccc(Br)c1)Nc1nc2c(s1)CCCCCC2	.	-6.3%	4%[46.1 µM]	.	.	-4%	.	8%
COCCNC(=O)c1c(NC(=O)Cc2coc3cc(C)ccc23)sc2c1CCCC2	3%[46.1 µM]	-9.9%	-9%[46.1 µM]	.	.	21%	.	20%
Cc1cc(C(=O)N/N=C/c2c(C)[nH]n(-c3ccccc3)c2=O)n[nH]1	?	.	-5%[46.1 µM]	-7%	28%	-14%	-9%	.
CCN(CC)S(=O)(=O)c1ccc(N2CCOCC2)c(NC(=O)c2ccccc2F)c1	?	.	?	?	-2%	-3%	.	.
CC1CCCN(C(=O)CCNC(=O)c2ccccc2Cl)C1 (stereo not given)	.	.	.	-9%	-6%	12%	-2%	.
Cc1cccc(CCNC(=O)Cn2ncc3c(=O)oc4ccccc4c32)c1	-1%[46.1 µM]	-1.2%	1%[46.1 µM]	.	.	0%	.	6%
CCc1cc(Br)ccc1N1C(=O)C2CC=CCC2C1=O (stereo not given)	-1%	3.9%	6%	-10%	11%	?	-1%	-5%
O=C(O)c1cccc(N2C(=S)N=C(Nc3ccccc3)C23CCCCC3)c1	.	.	.	11%	-1%	-5%	8%	.
Cc1oc2nc(SCCCC(=O)NCCCO)nc(N)c2c1C	?	4.0%	?	1%	5%	27%	-11%	5%
O=C(O)CCC(=O)N(Cc1cccnc1)Cc1cccc(F)c1	14%	0.1%	-4%	7%	-8%	5%	-16%	-11%
CCn1c(-c2ccc(C)cc2)n[nH]c1=S	-3%[46.1 µM]	3.5%	0%	9%	6%	-2%	4%	0%
COC(=O)[C@@]1(Cc2ccc(F)cc2)[C@H]2c3cc(C(=O)N(C)C)n(CCSCCO)c3C[C@H]2CN1C(=O)c1ccccc1	?	-1.5%&-1.3%	-16%	-1%	6%	-14%	-6%	?
c1ccc(Sc2nc(N3CCCCC3)nc(N3CCCCC3)n2)nc1	-25%	3.2%	-4%	10%	.	-9%	-18%	18%
Cc1cccc(/C=N/NC(=O)c2cccc([N+](=O)[O-])c2)n1	6%[46.1 µM]	.	22%[46.1 µM]	-14%	3%	-15%	1%	.
Cc1cccc(-c2noc(-c3ccc(N4CCN(C)CC4)c([N+](=O)[O-])c3)n2)c1	-2%[46.1 µM]	-4.2%	-22%[46.1 µM]	.	.	-12%	.	?
COc1ccc(OCCCC(=O)Oc2ccc(OC)cc2)cc1	-7%	0.9%	0%	-10%	8%	2%	-2%	8%
O=C(O)C1=CC2C=C(Cl)C=CC2OC1=O (stereo not given)	-2%	.	6%	15%	.	13%	.	.
O=C(Nc1cccc2cccnc12)c1cccc2ccccc12	?	2.2%&-1.8%	-24%[46.1 µM]	0%	-13%	0%	-5%	-7%&-2%
O=C(Cn1c(=O)c2cccn2c2cccnc21)N1CCN(c2ccccc2F)CC1	.	.	.	1%	2%	-16%	10%	.
Cc1nc(C)c(C(=O)O)c(-c2cccs2)c1C(=O)O	1%[46.1 µM]	.	7%[46.1 µM]	5%	2%	-5%	1%	.
CCC(=O)c1ccc(OCC(O)CN2CCN(C(c3ccccc3)c3ccccc3)CC2)cc1 (stereo not given)	?	6.9%	?	5%	3%	-22%	-17%	-10%
COc1ccc(CN(Cc2nc3ccccc3c(=O)[nH]2)C(=O)c2ccco2)cc1	-16%[46.1 µM]	.	?	11%	-2%	4%	-19%	.

3 entries from above in a different format.
The line under a structure holds: MARV entry inh | Cruzain Triton | LASV entry inh | RE007 growth inh | SARS PLP yeast | StopGo reporter | NS1 function inh | Cruzain noTriton
COc1ccc(-c2nc(SCc3ccccc3)n(C(=O)c3ccco3)n2)cc1
→ 20% | -2.0% | ? | -5% | -2% | 19% | -1% | ?
COCc1ccc(CN2CCC(Oc3ccc(C(=O)NCc4ccccn4)cc3)CC2)o1
→ ? | . | -2% | 0% | -7% | -5% | -4% | .
Cc1csc(CN(C)C(=O)C2CCC(=O)N(Cc3ccc(Cl)cc3)C2)n1 (stereo not given)
→ -17%[46.1 µM] | . | -8%[46.1 µM] | 4% | 1% | 20% | -1% | .
